# PMP22 txn = Cell-based coincidence reporter assay to measure PMP22 gene transcription in S16 Pmp22-F2sN cells - Primary screen | S16 Pmp22-F2sN Schwann cells (luciferase reporters placed in the Pmp22 gene), FLuc/NLuc coincidence luminescence, 24 h | Potency, µM (doses to about 57.5 µM), without a hit: at the highest dose activity change, negative = inhibition, hits mostly inhibitors | hit rate 2% among 43,000; active = clear falling dose curves in both reporters; inconclusive = both reporters move, but less clearly or upward; inactive = either reporter flat; the % is the NLuc reporter signal; note: % is set by controls: 0 for no effect and ±100 for the full control effect; some results filed as inactive show a strong effect at the top dose
#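 qHTS, 1536-well. Cells seeded, compounds added by pin tool, 24 h 37C. Nano-Glo reagent 1 (lysis/FLuc), 10 min RT, read; Stop&Glo, 10 min RT, read NLuc.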
# HTT prom inh = Primary qHTS for Identification of Small Molecule Inhibitors of Huntingtin Promoter Activity; Potency, µM (doses to about 57.5 µM), for the others: top-dose activity change, negative = inhibition, hits mostly inhibitors; HEK293 HTT promoter firefly luciferase reporter (activity 0% = vehicle and -100% = no light), 24 h; hit rate 0.93% among 48,000; active = well fitted inhibition curve with a large enough effect; inconclusive = small, poorly fitted or top-dose-only effect; inactive = no such curve, though single readings can be large or run the other way; note: nearly all actives have a fitted effect of over 50% in size
#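 Quantitative HTS used concentration series of up to 57.5 uM final on HEK293 luciferase reporter cells, 24 h at 37 degrees C. Readout was Dual-Glo firefly luminescence.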
# * marks the source's active call; other numbers are inactive results; ? = inconclusive; / = not tested or not shown; [ ] = dose if it differs, or a comment. Potency is the fitted concentration of half-maximal effect. An excerpt, so the mix of outcomes need not match the whole.
[1] COC(=O)c1cc2c(cc1NC(=O)c1cnn(-c3ccccc3)c1-n1cccc1)OCO2
[2] N#Cc1cccc(NC(=O)c2ccc3c(c2)N(Cc2cccc(Cl)c2)C(=O)c2ccccc2S3(=O)=O)c1
[3] Fc1ccccc1N1CCN(Cc2nnc(-c3ccc4c(c3)OCO4)o2)CC1
[4] CC(=O)N1CCc2c(sc3c2c(=O)n(CCc2ccccc2)c(=O)n3Cc2cccc(C)c2)C1
[5] Cn1c(=O)c2sccc2n2c(CCCC(=O)Nc3ccc(Oc4ccc(Cl)cc4)cc3)nnc12
[6] CCOC(=O)c1cc(-c2ccccc2)n(CC(=O)NCc2ccccc2OC)c1C
[7] CCCc1ccc(OC(=O)CSc2nnc(-c3cccs3)o2)cc1
[8] CCc1ccccc1NC(=O)Cn1c(=O)n(CC(=O)NCCc2ccccc2)c(=O)c2ccccc21
compound no. | 1 | 2 | 3 | 4 | 5 | 6 | 7 | 8
PMP22 txn | -11% | -7% | -27% | ? | ? | -30% | 6% | -11%
HTT prom inh | 11% | ? | -9% | -25% | 40µM* | -18% | -5% | -5%

[9] O=C(NCCc1csc(-c2cccc(F)c2)n1)c1ccc(Br)o1
[10] Cc1ccc(NC(=O)CCn2cccn2)c(C)c1
[11] COC(=O)c1ccc2c(=O)n(CCCCCC(=O)N3CCN(c4cc(Cl)ccc4C)CC3)c(=O)[nH]c2c1
[12] CC(=O)O[C@H]1C[C@@H]2CC[C@H]3[C@H]4C[C@H]([N+]5(C)CCCCC5)[C@@H](OC(C)=O)[C@@]4(C)CC[C@@H]3[C@@]2(C)C[C@H]1N1CCCCC1
[13] Cc1ccc(NC(=O)N2CCC(CN3CCCCC3)CC2)c(Cl)c1
[14] COc1cccc(CNC(=O)CSc2nc3ccccc3nc2Cc2ccc(C)cc2)c1OC
[15] O=C(Cn1cnc2c(oc3ccccc32)c1=O)Nc1ccc(F)cc1F
[16] Cc1ccc(Cc2c(C)nn(-c3nc(C)c(C(=O)N4CCCCC4C)s3)c2C)cc1 (configuration not stated)
compound no. | 9 | 10 | 11 | 12 | 13 | 14 | 15 | 16
PMP22 txn | -24% | -5% | ? | / | ? | 0% | -14% | 10%
HTT prom inh | ? | 7% | ? | -3% | -12% | -6% | 2% | -9%

[17] CC1CCN(C(=O)CSc2nc3ccccc3nc2Cc2ccccc2)CC1
[18] COc1ccc2c(Sc3ccccc3)c(C(=O)NCCc3ccc(Cl)cc3)[nH]c2c1
[19] CC(C)Oc1ccc(CNC(=O)c2ccc3c(c2)N(Cc2ccc(F)cc2)CCS3)cc1
[20] CCn1cc(C(=O)NCCCOC(C)C)c(=O)c2cc(S(=O)(=O)N3CCc4ccccc4C3)ccc21
[21] COc1ccc(OC)c(CNC(=O)Cn2nc(C)c3nn(-c4ccc(Cl)cc4)c(C)c3c2=O)c1
[22] Cc1nc(S(=O)(=O)N2CCN(c3ccc(Cl)cc3)CC2)cn1C
[23] CCc1ccc2occ(CC(=O)Nc3nnc(C)s3)c2c1
[24] O=C1c2[nH]nc(-c3ccccc3O)c2C(c2ccccc2F)N1Cc1ccncc1 (configuration not stated)
compound no. | 17 | 18 | 19 | 20 | 21 | 22 | 23 | 24
PMP22 txn | ? | -11% | ? | 2% | 3% | 3% | 7% | ?
HTT prom inh | ? | 5% | ? | -17% | -23% | -8% | -8% | -11%

[25] CC(CNc1nc2ccccc2c2nc(-c3ccccc3)nn12)c1ccccc1 (configuration not stated)
[26] Cc1ccn2c(c1)nc(=O)c1cc(S(=O)(=O)N3CCCCC3)c(Cl)cc12
[27] O=C(OCc1cc(=O)n2nc(C3CC3)sc2n1)c1ccccc1Cl
[28] Cc1cccc(N(C)C(=O)Cc2c(C(=O)O)[nH]c3ccccc23)c1
[29] Cc1ccc(CC(=O)Nc2c(C(=O)N3CCN(c4ccccc4F)CC3)oc3ccccc23)cc1
[30] Cc1ccc(Cn2ccnc2SCC(=O)NC2CCCC2)cc1
[31] CC(C)OCCCNc1ncnc2sc3c(c12)CCCC3
[32] CC(C)Oc1ccc(CNC(=O)c2ccc(NC(=O)N3CC(C)Sc4ccccc43)cc2)cc1 (configuration not stated)
compound no. | 25 | 26 | 27 | 28 | 29 | 30 | 31 | 32
PMP22 txn | 11% | 14% | ? | 14% | ? | -10% | 14µM* | 6%
HTT prom inh | -11% | -4% | 35% | -22% | ? | -19% | ? | ?

[33] Cc1cccc(Cn2c(SCc3ccc(C(=O)NC4CCCCC4)cc3)nc3ccncc32)c1
[34] CCn1cc2nc(SCC(=O)Nc3ccc(OC)c(OC)c3)n(Cc3ccc(Cl)cc3)c(=O)c2n1
[35] CN(C)[C@@H]1C(=O)C(C(=O)NCN2CCCC2)=C(O)[C@@]2(O)C(=O)C3=C(O)c4c(O)cccc4[C@@](C)(O)C3C[C@@H]12 (some centres not stated)
[36] Cc1cccc(-n2ccnc2SCC(=O)Nc2ccc3c(c2)OCO3)c1
[37] CC(C)c1ccc(Nc2nc3ccc(C(=O)c4ccccc4)cc3n3cnnc23)cc1
[38] CC1CCc2c(sc(NC(=O)C3c4ccccc4Oc4ccccc43)c2C#N)C1 (configuration not stated)
[39] CC(=O)Cn1nnc2sc(-c3ccccc3)cc2c1=O
[40] CCOc1ccccc1NC(=O)Cn1nc2c3cc(F)ccc3n(Cc3cccc(C)c3)cc-2c1=O
compound no. | 33 | 34 | 35 | 36 | 37 | 38 | 39 | 40
PMP22 txn | 1% | -41% | / | -12% | ? | 29% | -4% | 1%
HTT prom inh | 2% | -30% | 15% | -20% | -35% | ? | 57%[activator] | -9%

# Profiles, quoted from the list. Values in the order: PMP22 txn | HTT prom inh
# CC(=O)N1CCc2c(sc3c2c(=O)n(CCc2ccccc2)c(=O)n3Cc2cccc(C)c2)C1 is listed with ? | -25%
# Cc1nc(S(=O)(=O)N2CCN(c3ccc(Cl)cc3)CC2)cn1C is listed with 3% | -8%
# O=C(NCCc1csc(-c2cccc(F)c2)n1)c1ccc(Br)o1 is listed with -24% | ?
# Cc1cccc(N(C)C(=O)Cc2c(C(=O)O)[nH]c3ccccc23)c1 is listed with 14% | -22%
# Cc1cccc(-n2ccnc2SCC(=O)Nc2ccc3c(c2)OCO3)c1 is listed with -12% | -20%

# The listing continues.
[41] COc1ccc(C)cc1NC(=O)c1oc2ccc(S(=O)(=O)N(C)C3CCCCC3)cc2c1C
[42] Cc1ccc(C)c(S(=O)(=O)c2nnn3c2nc(N2CCN(C)CC2)c2sccc23)c1
[43] CCOC(=O)c1c(C)oc2nc(C)nc(NCC3CCN(Cc4cccc(C)c4)CC3)c12
[44] Cc1cc(-c2ccc(C)c(S(=O)(=O)NCC3CCN(Cc4ccccc4F)CC3)c2)on1
[45] Cc1ncc([N+](=O)[O-])n1CC(C)O (configuration not stated)
[46] COC(=O)c1sccc1S(=O)(=O)N(CC(=O)Nc1ccc(C)c(F)c1)c1ccc(C)c(C)c1
[47] COC(=O)C1=C(c2ccccc2)c2ccccc2S(=O)(=O)N1CC(=O)Nc1ccc(OC)cc1OC
[48] CCCCOC(=O)c1ccc(NC(=O)c2ccc3c(c2)CCN3S(C)(=O)=O)cc1
compound no. | 41 | 42 | 43 | 44 | 45 | 46 | 47 | 48
PMP22 txn | 1% | ? | 7% | ? | / | ? | -18% | -10%
HTT prom inh | -6% | -10% | -3% | ? | ? | -11% | -22% | ?

[49] Cc1cc(=O)[nH]c2nnc(SCC(=O)Nc3cc(C(F)(F)F)ccc3Cl)n12
[50] O=C(CSc1nc(=O)[nH]c2c1CCCC2)NCc1ccc(Cl)cc1
[51] Cc1ccc(CNS(=O)(=O)c2ccc(-c3cc(C(F)(F)F)on3)s2)cc1
[52] CCOc1ccc(C(=O)Nc2ccc(-c3nnc4n3CCCCC4)cc2)cc1OCC
[53] CCCNC(=O)CSc1nc2ccccc2nc1Cc1ccc(Cl)cc1
[54] CCCCCN1C(C(=O)c2ccccc2)=C(NC(=O)c2ccc(OC)cc2)c2ccccc2S1(=O)=O
[55] COc1ccc(Nc2cc(C)c3cc(NC(=O)Cc4c(F)cccc4Cl)ccc3n2)cc1
[56] Cc1cc(C)cc(NC(=O)Nc2c[nH]c(=O)[nH]c2=O)c1
compound no. | 49 | 50 | 51 | 52 | 53 | 54 | 55 | 56
PMP22 txn | ? | 10% | -6% | 21% | -4% | -4% | ? | 21%
HTT prom inh | -15% | -5% | 5% | -9% | -8% | -15% | -27% | -4%

[57] COc1ccc(NC(=O)C(C)n2c(C)c3cnn(-c4ccccc4)c(=O)c3c2C)cc1Cl (configuration not stated)
[58] COc1ccc(NC(=O)CCc2nnc3n(Cc4ccccc4Cl)c(=O)c4ccccc4n23)cc1
[59] COc1cccc(C2CC(=O)Nc3c2c(=O)n(C)c2nc4ccccc4n32)c1OC (configuration not stated)
[60] Cc1ccc(NC(=O)c2ccc(-c3ccccc3)s2)cc1
[61] COC(=O)C(CCSC)NC(=O)c1c(C)oc2ncn(CC(C)C)c(=O)c12 (configuration not stated)
[62] CC(C)n1cnc2c(NCCCCCCNC(=O)OC(C)(C)C)nc(NCCO)nc21
[63] CCOC(=O)c1ccc(NC(=O)COC(=O)c2cn(CC)c3nc(C)ccc3c2=O)cc1
[64] COc1ccc(OC)c(NC(=O)c2c(NCc3sccc3C)sc3c2CCCCC3)c1
compound no. | 57 | 58 | 59 | 60 | 61 | 62 | 63 | 64
PMP22 txn | ? | -11% | -4% | -3% | -28% | / | 3% | 11µM*
HTT prom inh | -27% | -5% | 0% | 18% | 3% | -26% | -1% | -8%

[65] CC(C)c1ccccc1Cc1cc(C(=O)Nc2ccc(S(=O)(=O)c3ccccc3C(C)(C)C)cc2)c(O)c(O)c1O
[66] COCCNC(=O)CCN1C(=O)c2cccnc2Oc2ccc(C)cc21
[67] COc1cccc(C(=O)N2c3cc(C)ccc3C(C)(c3ccccc3)CC2(C)C)c1 (configuration not stated)
[68] Cc1cccc2c(=O)cc(CSc3ccccc3NC(=O)c3cccc(F)c3)[nH]c12
[69] CC(CNC(=O)c1ccc(Cn2c(=O)c3cccn3c3cccnc32)cc1)c1ccccc1 (configuration not stated)
[70] COc1ccc(OC)c(NC(=O)Cn2cnc3onc(-c4ccc(Cl)cc4)c3c2=O)c1
[71] CCOC(=O)c1ccc(NC(=O)CCCn2nc(C)c3sc4ccccc4c3c2=O)cc1
[72] Cc1ccccc1Cn1c(CN2CCC(C(=O)NCc3ccc(Cl)cc3)CC2)cc2ccccc21
compound no. | 65 | 66 | 67 | 68 | 69 | 70 | 71 | 72
PMP22 txn | / | -4% | ? | -7% | ? | 5.1µM* | -2% | -23%
HTT prom inh | ? | 4% | ? | 3% | -22% | -47% | -4% | 14%

[73] Cn1cnc(S(=O)(=O)N2CCC(C(=O)Nc3ccc(Cl)c(C(F)(F)F)c3)CC2)c1
[74] Cc1cc(C)n(-c2nc3ccccc3nc2Nc2ccc(Cl)c(Cl)c2)n1
[75] O=C(NCCc1ccccc1)C(=O)Nc1cccc(Br)c1
[76] O=C(NCCCNc1nc(Nc2cccc(NC(=O)N3CCCC3)c2)ncc1I)c1cccs1
[77] Cc1cc(C)cc(Nc2cc(C)nc3nc(-c4ccco4)nn23)c1
[78] O=C(NCCc1ccccc1)C1CCN(Cc2cc3ccccc3n2Cc2cccc(Cl)c2)CC1
[79] CN(C)CCN(Cc1ccccc1)S(=O)(=O)c1ccc2[nH]c(=O)ccc2c1
[80] Cc1ccc(N2CCN(C(=O)NCc3noc4ccc(C)cc34)CC2)c(C)c1
[81] COc1cccc2sc(N(Cc3cccnc3)C(=O)C3CCCCC3)nc12
[82] Cc1ccc(Cl)cc1NC(=O)C1CCN(C(=O)c2cnn(-c3ccccc3)c2-n2cccc2)CC1
compound no. | 73 | 74 | 75 | 76 | 77 | 78 | 79 | 80 | 81 | 82
PMP22 txn | ? | -5% | 2% | / | ? | ? | 2% | -2% | 5% | ?
HTT prom inh | ? | -2% | 13% | ? | ? | ? | -20% | -9% | ? | ?

# Three entries out of the list, arranged by SMILES length, ascending.
[77] Cc1cc(C)cc(Nc2cc(C)nc3nc(-c4ccco4)nn23)c1
[76] O=C(NCCCNc1nc(Nc2cccc(NC(=O)N3CCCC3)c2)ncc1I)c1cccs1
[82] Cc1ccc(Cl)cc1NC(=O)C1CCN(C(=O)c2cnn(-c3ccccc3)c2-n2cccc2)CC1
compound no. | 77 | 76 | 82
PMP22 txn | ? | / | ?
HTT prom inh | ? | ? | ?

# From PubChem
